Screening data as filed in PubChem.
Bfl-1 A1 inh: caspase 3/7 activation in MEF A1-2A-BIM cells, primary screen, A1 inhibitor project, cell-based, luminescence, HTS; Caspase-Glo 3/7 luminescence, 3 h; percent of clofoctol response, vehicle zero; caspase activation, % (no concentration beside the values); 0.066% of 330,000 active; AID 2462, 2010;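 active = over half of replicate activation scores above 10%, or exactly half above 10 with the replicate mean above 10; inconclusive = replicate mean below 10 yet half the replicates above 10; inactive = over half of replicates below 10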;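 also: wells of about 30 µL received 50 nL stock; many hits fall short of the cut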
Vif A3G: inhibitors of Vif binding to APOBEC3G peptide, primary screen, biochemical, TR-FRET, GST-Vif 1-94, biotin-A3G peptide, dose response retest (AID 1117319) | Virion infectivity factor (Human immunodeficiency virus type 1 group M subtype B (isolate … | inhibition, %, or IC50 in µM where a hit was titrated | TR-FRET GST-Vif / biotin-A3G peptide binding; higher % means a stronger effect; test concentration not given here; strong numbers were not always called active | 0.57% of 260,000 active;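 active = above the screen mean plus three standard deviations and confirmed in dose response; inconclusive = results disagree or hit not tested in dose response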;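 also: Vif residues 1-94 fused to GST binding biotinylated APOBEC3G peptide 110-148; 0% = full assay without inhibitor and 100% = GST in place of GST-Vif; retest series ran down from 100 µM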
MLL AF4-AF9 inh: inhibitors of AF4 peptide binding to AF9, primary screen, biochemical, AlphaScreen, biotin-AF4 peptide, FLAG-AF9, single point. Protein AF-9 (Homo sapiens), P42568. inhibition, % at 10 µM. 0.47% of 350,000 active;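 active = every replicate reaching a set inhibition limit, whatever the replicate mean, cut at about 25% in these data; inconclusive = mean inhibition reaches that limit but some replicates miss it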;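 also: 0% = plate neutral control median and 100% = total signal loss; the record names both 10 and 1 µM as test concentration; the first replicate is given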
Target sequence (P42568 whole entry, looked up): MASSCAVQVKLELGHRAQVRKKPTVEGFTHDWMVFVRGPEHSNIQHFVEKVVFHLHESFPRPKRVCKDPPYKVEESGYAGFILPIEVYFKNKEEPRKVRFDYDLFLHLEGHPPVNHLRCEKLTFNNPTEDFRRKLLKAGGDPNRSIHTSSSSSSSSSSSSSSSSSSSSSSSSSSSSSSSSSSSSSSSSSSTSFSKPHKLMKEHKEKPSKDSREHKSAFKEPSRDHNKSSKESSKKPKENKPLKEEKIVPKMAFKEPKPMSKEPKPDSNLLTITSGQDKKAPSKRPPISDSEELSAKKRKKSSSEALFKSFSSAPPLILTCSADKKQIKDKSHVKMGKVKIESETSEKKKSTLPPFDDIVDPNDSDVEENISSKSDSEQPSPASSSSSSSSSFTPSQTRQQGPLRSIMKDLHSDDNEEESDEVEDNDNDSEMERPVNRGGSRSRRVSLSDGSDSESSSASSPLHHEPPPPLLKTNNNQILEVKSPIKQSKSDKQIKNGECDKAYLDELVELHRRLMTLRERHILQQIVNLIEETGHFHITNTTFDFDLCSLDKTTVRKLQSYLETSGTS
RanGTP-Impb inh: inhibitors of RanGTP-importin-beta interaction, primary screen, biochemical, FRET, CFP-Ran, YFP-importin-beta, homogeneous. Ran GTPase (GTP-bound) - importin-beta complex. cell-free CFP-Ran/YFP-importin-beta FRET ratio. inhibition, % (test concentration not listed). 1.1% of 300,000 active;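 active = most replicates above 15%; inconclusive = exactly half above 15%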;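 also: 0% = DMSO wells and 100% = Ran loaded with GDP instead of GTP; wells of about 40 µL received 100 nL stock; the first replicate is given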
T cruzi inh: inhibitors of intracellular T. cruzi growth, primary screen, luminescence, NIH3T3 host cells; T. cruzi beta-gal in NIH3T3, 90 h; inhibition, % (no concentration beside the values); 1.4% of 300,000 active; AID 1885, 2009;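 active = mean inhibition across valid replicates above about 55%, limit read from the data; inconclusive = mean below that limit but half or more replicates reach it; inactive = mean below it, under half of replicates reach it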;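 also: signal also drops with host cell toxicity which is not excluded here; 0% = plate median of DMSO wells and 100% = zero luminescence signal; higher percent means less beta-gal luminescence so fewer parasites; stock transfer was 50 nL into about 50 µL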
Beta apoptosis: inhibitors of cytokine-induced beta cell apoptosis, primary screen, luminescence; AID 435005, 2010; 0.8% of 300,000 active; INS-1E cytokine-induced death, ATP luminescence, 48 h; percent of positive-control rescue, neutral wells zero; protection from apoptosis, % (concentration not given with the values);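 active = all replicates at 75% or more, or half of them and the mean; inconclusive = half reach 75% but not the mean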;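 also: 0% = cytokine-treated negative control wells and 100% = positive control rescue; higher means more ATP so stronger rescue from cytokine killing; wells of about 40 µL received 100 nL stock; the first replicate is given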
Calb FLC: C. albicans growth inhibition with fluconazole, primary screen, CaCi-2 strain, Alamar Blue fluorescence; 0.57% of 300,000 active; growth inhibition, % (concentration not given with the values); C. albicans CaCi-2 (fluconazole-resistant clinical isolate) + fluconazole, 48 h;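 active = most replicates above 75%; inconclusive = exactly half above 75%; inactive = most below 75%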;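 also: all wells also contain fluconazole at 8 µg/ml as a sub-toxic cotreatment; 0% = median of DMSO wells and 100% = median of geldanamycin control wells; wells of about 8 µL received 7.5 nL stock; the first replicate is given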
rRNA inh HTS: reduced GFP signal of wild-type E. coli, primary screen, bacterial rRNA inhibitor project, GFP/RFP fluorescence, OD600, single point. E. coli WT GFP vs humanized-ribosome RFP mutants, 24 h; active compounds read low; DMSO median 0, no signal -100. GFP signal change (wild-type ribosome), % (no concentration beside the values). 1.6% of 350,000 active. AID 720706, 2013;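 active = significant combined selectivity score with lowered wild-type GFP, culture density cut under 30%, mutant RFP and density less affected; inactive = any of these conditions unmet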; also: one replicate is shown; some compounds called inactive have numbers as strong as hits
rRNA inh HTS OD600: also measured in rRNA inh HTS; calls as there; OD600 change, %; measured here: OD600 growth;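 optical density of the mix in the first replicate; 0 = DMSO median and -100 = no signal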
rRNA inh HTS RFP: recorded beside rRNA inh HTS, whose call it bears; RFP signal change, %; measured here: RFP humanized mutant strains;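 first replicate; 0 = DMSO median and -100 = no signal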
Numbers without * were called inactive; ? = inconclusive; . = no result given. Not all compounds are listed; rates above refer to the full screens.

Start of the listing, in advance:
SMILES	Bfl-1 A1 inh	Vif A3G	MLL AF4-AF9 inh	RanGTP-Impb inh	T cruzi inh	Beta apoptosis	Calb FLC	rRNA inh HTS	rRNA inh HTS OD600	rRNA inh HTS RFP
Cc1ccccc1SC1CCN(Cc2nc(C3CC3)no2)CC1	-0.5	-1.6%	-1.7	-1.6	20.1	-7.8	5.6	-12.8	-10.2	6.8
CCSc1cc(C2C(C(=O)OC)=C(C)NC3=C2C(=O)CCC3)c(C)o1 (stereo not given)	0.3	?	.	-1.8	-5.6	-2.8	-1.3	.	.	.
Cc1cc(/C=N/NC(=O)C(=O)N2CCCC2)c(C)n1-c1cccc(Br)c1	0.0	27.6%	.	0.8	16.8	-1.0	7.1	.	.	.

Results, from the first entry:
SMILES	Bfl-1 A1 inh	Vif A3G	MLL AF4-AF9 inh	RanGTP-Impb inh	T cruzi inh	Beta apoptosis	Calb FLC	rRNA inh HTS	rRNA inh HTS OD600	rRNA inh HTS RFP
Cc1ccccc1SC1CCN(Cc2nc(C3CC3)no2)CC1	-0.5	-1.6%	-1.7	-1.6	20.1	-7.8	5.6	-12.8	-10.2	6.8
CCSc1cc(C2C(C(=O)OC)=C(C)NC3=C2C(=O)CCC3)c(C)o1 (stereo not given)	0.3	?	.	-1.8	-5.6	-2.8	-1.3	.	.	.
Cc1cc(/C=N/NC(=O)C(=O)N2CCCC2)c(C)n1-c1cccc(Br)c1	0.0	27.6%	.	0.8	16.8	-1.0	7.1	.	.	.
COc1ccc(C2=Nn3c(nnc3-c3ccccn3)SC2)cc1	0.7	-1.6%	7.4	-1.8	-4.5	1.3	9.9	-5.2	-9.7	-0.4
COc1cc(OC)c(C2Nc3ccccc3NC3=C2C(=O)CC(C)(C)C3)cc1OC (stereo not given)	-0.9	.	-0.4	-5.6	3.7	-0.3	-1.6	15.3	-7.6	62.5
O=c1ccc2cc3ccoc3cc2o1	-0.4	.	-5.4	2.7	-17.0	-0.1	0.5	.	.	.
CC(C)C(=O)NC(Nc1cccc([N+](=O)[O-])c1)C(Cl)(Cl)Cl (stereo not given)	-1.0	.	1.3	?	-1.0	7.3	-28.1	-2.4	-6.8	4.7
COc1cc(S(=O)(=O)N2CCN(c3ccccc3)CC2)ccc1Cl	-0.2	-2.4%	2.8	2.7	-12.7	-4.8	-17.1	-1.8	-0.3	-3.7
Cc1cc(C)cc(OCC(=O)Nc2ccc(S(=O)(=O)Nc3ccccn3)cc2)c1	-3.6	.	0.3	-1.3	-17.5	0.1	10.8	4.8	-7.8	0.1
CCCOc1ccc2ccccc2c1/C=N/n1cnnc1	-1.1	1.1%	.	0.1	1.2	-5.6	11.3	.	.	.
COc1cccc(NC(=O)CC2SC(=Nc3ccccc3)NC2=O)c1 (stereo not given)	0.6	1.3%	.	5.4	-2.8	1.3	4.3	.	.	.
Cc1cc(NC(=O)Cn2c(=O)n(Cc3ccccc3)c(=O)c3ccccc32)no1	0.7	-1.4%	.	-4.2	-15.0	-2.2	?	.	.	.
CN(C)CCP(=O)(c1ccccc1)c1ccccc1	0.4	21.1%	-0.6	-0.2	-14.6	-1.0	-6.9	16.9	5.0	0.2
COc1ccc(Br)cc1CNC(=O)CCc1nc(-c2ccccc2F)no1	0.8	28.0%	.	0.1	20.0	-3.8	5.9	.	.	.
COc1ccc(/C=N/NC(=O)NC23CC4CC(CC(C4)C2)C3)c(OC)c1	2.1	5.2%	15.0	3.8	18.6	-5.4	1.5	-2.5	-7.5	4.3

Part of the list above in order of count of non-hydrogen atoms, falling.
SMILES	Bfl-1 A1 inh	Vif A3G	MLL AF4-AF9 inh	RanGTP-Impb inh	T cruzi inh	Beta apoptosis	Calb FLC	rRNA inh HTS	rRNA inh HTS OD600	rRNA inh HTS RFP
COc1cc(OC)c(C2Nc3ccccc3NC3=C2C(=O)CC(C)(C)C3)cc1OC (stereo not given)	-0.9	.	-0.4	-5.6	3.7	-0.3	-1.6	15.3	-7.6	62.5
Cc1cc(/C=N/NC(=O)C(=O)N2CCCC2)c(C)n1-c1cccc(Br)c1	0.0	27.6%	.	0.8	16.8	-1.0	7.1	.	.	.
COc1cccc(NC(=O)CC2SC(=Nc3ccccc3)NC2=O)c1 (stereo not given)	0.6	1.3%	.	5.4	-2.8	1.3	4.3	.	.	.

Other records:
SMILES	Bfl-1 A1 inh	Vif A3G	MLL AF4-AF9 inh	RanGTP-Impb inh	T cruzi inh	Beta apoptosis	Calb FLC	rRNA inh HTS	rRNA inh HTS OD600	rRNA inh HTS RFP
CCCn1cc(S(=O)(=O)c2ccccc2)c(=O)c2cc(OC)c(OC)cc21	0.8	6.4%	-0.3	-2.7	-10.5	-1.7	-1.3	0.7	0.8	-3.8
COCc1cc(=O)n2[nH]c(-c3ccsc3-n3c(C)ccc3C)cc2n1	1.1	?	.	-6.7	-3.0	.	37.0	.	.	.
Cc1cc(C)cc(-n2c(C)cc(/C=C3\C(=N)N4N=C(CC(C)C)SC4=NC3=O)c2C)c1	0.6	.	5.3	5.4	16.2	11.7	46.9	.	.	.
COc1ccc(-c2noc(=O)n2CC(=O)N2CCC(Cc3ccccc3)CC2)cc1	1.4	?	-1.3	0.5	4.5	9.5	-4.2	19.9	-17.4	7.4
O=C(CCCCCN1C(=O)CCC1=O)Nc1ccc2c(c1)OCCO2	-0.5	-2.5%	.	?	4.3	.	4.7	.	.	.
COc1ccc(-c2nnc3sc(-c4cccs4)nn23)cc1OC	-0.1	-1.5%	.	1.0	43.6	3.0	7.2	-2.9	4.9	-4.2
COc1ccc(N2C(=O)CS(=O)C(c3ccccc3)C2=O)cc1 (stereo not given)	-1.3	.	11.2	?	5.1	-5.3	16.8	8.4	3.4	-1.9
COC(=O)c1ccccc1NS(=O)(=O)c1ccc(F)cc1	-0.4	?	.	0.2	-3.8	4.5	10.7	.	.	.
S=C(NCc1cccnc1)Nc1ccc(Oc2ccc(Cl)cc2)cc1	0.3	-8.0%	4.4	-1.0	3.0	-0.6	-0.3	-26.1*	10.2*	-2.8*
O=C(CSc1ncc(-c2ccccc2)[nH]1)Nc1ccccc1F	0.7	8.7%	1.4	-0.9	-2.5	-7.4	-0.6	-14.4	-2.9	9.0
CN(C)CC/C=C1\c2ccccc2Sc2cc(F)c(Cl)cc21	1.3	.	27.8*	-2.3	6.2	24.9	-0.7	-48.2	-76.6	-12.9
O=C(NC1CCCCC1)C(c1ccc2ncccc2c1)N(Cc1ccc2c(c1)OCO2)C(=O)c1cccs1 (stereo not given)	-0.3	-0.4%	.	4.6	24.8	11.4	19.6	.	.	.
O=C(O)/C(=C/c1ccco1)c1ccccc1	-0.5	.	.	-1.1	-6.8	.	6.6	.	.	.
Cc1cc(NC(=O)CCS(=O)(=O)c2ccc(F)cc2)no1	2.0	2.3%	1.3	-2.6	-13.3	-10.6	-4.4	12.9	8.8	1.2
CCCN(CCC)CCCNC(=S)Nc1ccc2nc(N3CCCC3)cc(C)c2c1	0.8	4.4%	21.6	6.0	59.4*	12.3	23.7	.	.	.
Cc1cc(/C=C(\C#N)C(=O)Nc2ccccc2)c(C)n1-c1ccc(C(=O)O)cc1	-0.8	.	-2.0	1.6	-0.9	8.5	-1.5	-21.9	4.5	22.7
Cc1cc(C)c(S(=O)(=O)Nc2ccccc2C(=O)OCC(=O)NCc2ccccc2)c(C)c1	-0.1	0.1%	-1.2	1.3	3.2	0.2	51.0	3.0	5.1	-3.0
CCC1S/C(=N/N=C/c2ccco2)N(Cc2ccc(F)cc2)C1=O (stereo not given)	1.1	3.3%	-2.1	1.8	12.7	-6.0	-3.5	0.6	-2.8	1.2
O=C(Nc1cccc(NC(=O)N2CCN(c3ccccc3)CC2)c1)N1CCN(c2ccccc2)CC1	0.1	-3.8%	.	-1.1	18.4	11.8	-1.6	.	.	.
CCc1ccc(C(=O)CSc2ncn[nH]2)cc1	-2.0	4.5%	.	17.9*	-19.0	-5.7	24.6	.	.	.
CC1(c2nnc(-c3cccc(Cl)c3)o2)CC(c2ccc(OC(F)(F)F)cc2)=NO1 (stereo not given)	-0.5	.	5.1	0.3	-16.2	-12.2	-6.7	-10.8	-9.1	-11.0
CC1CCC(NC(=O)C2CCC(CNS(=O)(=O)c3cccc4cccnc34)CC2)CC1 (stereo not given)	1.2	.	-12.8	-1.4	0.0	1.4	-12.4	-1.3	0.4	1.4
COc1ccc(NC(=O)c2ccccc2S(=O)c2ccccc2C#N)cc1 (stereo not given)	-0.2	.	-2.5	0.5	-8.6	.	?	6.2	-3.4	-3.4
COc1ccccc1-c1cnn2c(N3CCOCC3)cc(C)nc12	-0.2	-6.1%	-0.9	-5.9	-7.1	-0.7	-4.9	3.2	3.1	-1.8
CC(C)N1C(=O)CCC1C(=O)NCc1ccccc1Cl (stereo not given)	0.9	0.2%	2.6	0.9	-9.7	0.8	-2.8	3.1	8.5	-1.8
C/C(N)=C(/C#N)C(=O)COC(=O)c1cc2c(s1)CCCC2	0.6	-8.1%	-1.0	-0.4	7.7	-1.2	-12.2	-24.1	-30.9	24.3
Cc1ccc(-c2csc(NC(=O)c3ccc(-c4ccccc4)cc3)n2)o1	1.5	>100µM*	.	5.0	23.1	13.9	-11.1	.	.	.
CC(NC(=O)COc1ccccc1)C(=O)NCc1ccccc1Cl (stereo not given)	-0.5	.	-2.3	.	.	-0.9	.	-5.8	-4.8	1.7
Cc1ccc2c(CC(=O)N3CCN(c4ccccc4)CC3)coc2c1	-0.6	-2.1%	0.2	2.7	-9.7	0.3	-4.9	0.1	-2.7	11.8
CCOC(=O)C1=C(C)NC(=S)NC1/C=C/c1ccccc1 (stereo not given)	0.8	29.4%	.	2.4	9.4	-1.1	-11.2	.	.	.
O=C(CNC(=O)c1ccc(Br)o1)NNC(=O)c1ccc(Br)cc1	-0.3	-5.6%	-2.9	.	.	-3.8	.	-0.1	3.7	-1.2
CCOC(=O)N1CCC(C(=O)Nc2ccc(OCC)cc2)CC1	0.3	-2.7%	-1.7	?	-4.3	2.2	-5.1	3.0	7.6	-4.1
c1ccc(-c2ccc3[nH]ccc3c2)cc1	0.3	.	5.6	.	.	-5.0	.	0.5	-3.0	1.2
